Sa growth 42C – S. aureus growth inhibition at 42 and 30 °C, primary screen, LtaS inhibitor project, RN4220, two temperatures; OD600, 20 h, 42 °C; active compounds read low; relative growth, % (concentration not given with the values); 0.53% of 170,000 active; AID 720641, 2013;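 active = growth at 42 °C up to 50% and 20 or more points under that at 30 °C, or under 10% at both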;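 note: 300 nL library stock went into each well; scaled to the means of positive and negative controls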
HCMV UL50-53 inh – inhibitors of HCMV UL50-UL53 interaction, biochemical, HTRF; inhibition, % (test concentration not listed); normalized percent inhibition; HCMV UL50-UL53 nuclear egress complex (human cytomegalovirus); 0.15% of 190,000 active;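 active = both replicates at 50% or more, plus weaker picks with an unusually low signal ratio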;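 note: stock transfer was 100 nL into about 20 µL; 0% = negative control wells and 100% = wells with untagged competitor protein; inactives centre near -12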
GIV-Gai inh – inhibitors of GIV peptide binding to Galpha-i3, primary screen, biochemical, fluorescence polarization, FITC-GIV GBA peptide, rat Galphai3. Guanine nucleotide-binding protein G(i) subunit alpha-3 (Rattus norvegicus), P08753. 90 min; active compounds read low; scaled: aluminum fluoride 0%, vehicle 100%. percent of control (FP), % (no concentration beside the values). 0.42% of 210,000 active;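 active = replicate mean at 85% of control or lower, very high polarization wells dropped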;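 note: wells of about 15 µL received 100 nL stock; the first replicate is given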
Target sequence (P08753 whole entry, looked up): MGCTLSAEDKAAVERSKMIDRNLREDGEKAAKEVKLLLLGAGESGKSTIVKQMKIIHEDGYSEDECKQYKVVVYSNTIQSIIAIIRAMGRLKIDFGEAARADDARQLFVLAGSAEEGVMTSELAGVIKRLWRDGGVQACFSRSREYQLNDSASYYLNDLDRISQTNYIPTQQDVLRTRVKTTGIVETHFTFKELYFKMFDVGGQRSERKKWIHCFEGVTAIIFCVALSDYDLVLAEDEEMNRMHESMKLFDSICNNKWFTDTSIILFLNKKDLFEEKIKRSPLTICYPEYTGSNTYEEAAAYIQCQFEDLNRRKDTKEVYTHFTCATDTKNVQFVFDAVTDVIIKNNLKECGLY
Sa growth 42C second temp – also measured in Sa growth 42C; calls as there; relative growth, %; measured here: growth at 30 °C;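 optical density after 20 h as mean of two plates; 100% = untreated growth and lower means inhibition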
An asterisk follows results filed as active; · = no result given; & = joins results of further samples.

SMILES	Sa growth 42C	Sa growth 42C second temp	HCMV UL50-53 inh	GIV-Gai inh
Clc1cccc(-n2cc(-c3ccccc3)c3c(NC4CCCC4)ncnc32)c1	85.5	82.9	·	105.5
O=C(CSc1ccccc1C(=O)O)NC1CCCc2ccccc21 (stereo unspecified)	117.5	100.5	3.4	·
O=C(C1CCCCC1)N1CCc2[nH]c3ccc(F)cc3c2C1	94.7	83.0	-16.2	97.8
CCOC(=O)c1c(NC(=O)c2nn(-c3ccc(OCC)cc3)ccc2=O)sc2c1CCC2	·	·	-2.1	101.1
Nc1c(N2CCCC2)c2ccccc2oc1=O	90.0	71.2	-58.4	99.6
Cc1ccc2c(c1)C1CN(C)CCC1N2C(=S)Nc1ccc(S(=O)(=O)N2CCOCC2)cc1 (stereo unspecified)	86.2	93.6	-4.8	·
Cn1c(=O)c(-c2nc(-c3ccccc3)cs2)cn(-c2ccccc2)c1=O	111.0	96.4	3.7	98.3
Cc1ccc(NC(=O)N2CC3CCCN3c3ccccc32)cc1C (stereo unspecified)	95.2	96.1	-9.8&-19.7	103.5&108.9
CCOc1cc(CNC(=O)c2ccc3c(c2)nc2n3CCCCC2)ccc1OC	87.2	96.0	·	104.3
O=C(CN1C(=O)COc2ccccc21)Nc1ccc(S(=O)(=O)Nc2ncccn2)cc1	77.9	98.8	-2.5	·
CCc1nc(-c2cc(S(=O)(=O)N3CCOCC3)c(C)s2)no1	·	·	-12.1	107.2
c1ccn(-c2cnccn2)c1	·	·	-22.5	105.3
O=C(NCCN1C(=O)C2C3C=CC(C3)C2C1=O)Nc1ccccc1 (stereo unspecified)	98.5	83.8	-21.0	104.1
CCc1nn2c(=O)cc(COc3ccc(/C=C4/C(=N)N5C=CSC5=NC4=O)cc3)nc2s1	111.2	93.4	-14.3	103.1
Cc1nn(Cc2ccc(F)cc2)c(C)c1NC(=O)c1cc(CC(C)C)on1	97.5	85.4	-4.2	103.3
O=C(NCCc1nc2cccnc2n1C1CCCCC1)Nc1ccccc1Cl	·	·	-15.3	113.9
O=C(NCCc1ccccc1)c1c[nH]c2ccc(S(=O)(=O)Nc3ccccc3F)cc2c1=O	97.6	88.5	2.1	103.5
CCSc1[nH]c(=O)cc(C)c1C#N	113.8	93.8	-3.4	·
Cc1ccc(SC(=O)N/C=C/c2ccsc2)cc1	96.5	87.8	-12.1	102.8
COc1ccc(CC(=O)n2[nH]c(=O)ccc2=O)cc1OC	99.7	91.5	18.3	·
CNC(=O)c1cc2n(n1)CC(C)(C(=O)NC1CCCCC1)N(C)C2=O (stereo unspecified)	·	·	-5.1	100.1
CC(Nc1ncnc2c1oc1ccccc12)C12CC3CC(CC(C3)C1)C2 (stereo unspecified)	91.9	94.8	-2.0	·
Cc1c(NC(=O)Nc2ccc(Cl)c(Cl)c2)sc2nc3n(c(=O)c12)CCC(C)CC3 (stereo unspecified)	117.8	90.8	-28.7	100.2
CCOc1ccc(-n2nc(CO)c(C(=O)NCc3cccnc3)n2)cc1	105.8	89.5	-1.2	105.3
Cc1cccc(Nc2c(-c3cccs3)nc3nc(C)cc(C)n23)c1	112.9	100.7	23.7	109.5
CO[C@H](C(=O)[C@@H](O)[C@@H](C)O)[C@@H]1Cc2cc3cc(O[C@H]4C[C@@H](O[C@H]5C[C@@H](O)[C@H](O)[C@@H](C)O5)[C@@H](O)[C@@H](C)O4)c(C)c(O)c3c(O)c2C(=O)[C@H]1O[C@H]1C[C@@H](O[C@H]2C[C@@H](O[C@H]3C[C@](C)(O)[C@H](O)[C@@H](C)O3)[C@H](O)[C@@H](C)O2)[C@H](O)[C@@H](C)O1	-0.2*	-1.0*	-44.5	105.2
CCc1ccc(-n2c(=O)c3cccnc3n2CC(=O)NC2CCCC2)cc1	·	·	9.8	111.4
Cc1cc(C)c(S(=O)(=O)N2CCCCC2C(=O)N2CCN(c3ccccc3F)CC2)c(C)c1 (stereo unspecified)	·	·	-28.2	103.3
CCOC(=O)c1ccc(N2C(=N)S/C(=C\c3ccc(N4CCN(C)CC4)c([N+](=O)[O-])c3)C2=O)cc1	·	·	-21.5	105.8
Cc1cccc(CCNC(=O)CSc2c3c(nc4ccc(Cl)cc24)CCCC3)c1	91.8	81.6	·	99.9
CCCOC(=O)C1=C(C)NC2=C(C(=O)CC(c3ccc(OC)cc3)C2)C1c1cc2c(cc1Cl)OCO2 (stereo unspecified)	·	·	8.9	104.8
COc1cc(C(C(=O)NC2CCCCC2)N(Cc2ccco2)C(=O)c2cnccn2)cc(OC)c1OC (stereo unspecified)	96.2	84.0	-39.2	97.6
CC(=O)Nc1cc(NC(C)=O)cc(C(=O)N2CCCC3CCCCC32)c1 (stereo unspecified)	87.8	65.0	-18.0	·
CCCCNC(=O)CN1N=C(c2ccccc2)CCC1=O	93.5	78.6	-34.0	105.2
O=C(Cc1ccccc1)Nc1cc(-c2nc3cc(Cl)ccc3o2)ccc1Cl	77.3	89.5	-14.7	110.8
O=C1NC(CCc2ccccc2)C(=O)N1Cc1cc(=O)n2ccsc2n1 (stereo unspecified)	85.1	82.1	-19.3	·
O=C(c1ccccc1SCc1ccccc1)N1CCCc2ccccc21	108.2	104.4	-17.6	·
Oc1ccc(Nc2nc(-c3ccc(Cl)cc3)nc3ccccc23)cc1	83.7	24.6	8.4	106.1
COc1ccc(Cl)cc1NC(=O)c1cnn(-c2ccc(Br)cc2)c1	·	·	4.4	100.4
Cc1cc(N2CCCCC2)nc(N2CCC(O)(Cc3ccccc3)CC2)n1	97.0	105.5	10.1	103.9
CCc1ccc(NC(=O)C(=O)NCCN2CCN(C(=O)c3ccc(OC)c(OC)c3)CC2)cc1	·	·	-11.0	106.7
Cc1ccc(NC(=O)COc2cccc(-c3nc(-c4ccccc4)no3)c2)cc1	·	·	-6.5	106.6
Cc1ccccc1C(=O)Nc1ccc(OCc2cc(=O)n3cccc(C)c3n2)cc1	81.0	89.5	·	97.9
Cc1cccc(C(=O)Nc2cccc(OCc3cc(=O)n4ccccc4n3)c2)c1	96.7	85.0	·	97.4
O=C(c1cnccn1)N(Cc1cccs1)C1(C(=O)NC2CCCC2)CCCCC1	96.1	98.8	·	104.8
Cc1ccc(CNC(=O)c2cc(NS(=O)(=O)c3ccc(C)cc3)ccn2)cc1	106.8	89.7	·	103.7
COc1cc(NC(=O)Cn2c3ccccc3c(=O)c3ccccc32)cc(OC)c1OC	·	·	-26.8	99.7
Cc1coc2cc3oc(=O)c4c(c3cc12)CCC4	107.8	90.7	-10.7	108.0
Cc1ccc(NC(=O)OC(C)(C)C)s1	71.0	94.1	-4.9	·
O=c1c(-c2ccc(Br)cc2)coc2cc(OC3OC(O)C(O)C(O)C3O)ccc12 (stereo unspecified)	·	·	9.8	113.1
Cc1ccc2cc(C(c3nnnn3C3CCCC3)N3CCCc4ccccc43)c(=O)[nH]c2c1 (stereo unspecified)	105.5	76.0	-72.5	100.8
CCCN1C(=O)/C(=c2\sc3n(c2=O)C(c2ccccc2)C(C(=O)OCC)=C(C)N=3)c2ccccc21 (stereo unspecified)	·	·	-7.0	112.6
CCCn1c2ccc(C)cc2c2nnc(SCCN3CCOCC3)nc21	120.1	77.6	·	102.7
CC(C)Cn1c(/C=C/c2ccc(F)cc2)nc2ccccc21	93.8	95.4	-21.6	107.2
COCCNC(=O)c1cc2c(=O)n3cccc(C)c3nc2n(C)c1=N	81.5	91.0	-17.0	102.9
COC(=O)c1ccc(Cn2nnc3c(=O)[nH]c(C4CCCN(S(=O)(=O)c5cccc(Cl)c5)C4)nc32)cc1 (stereo unspecified)	106.8	85.8	-20.4	100.4
Cc1ccc(C(=O)NC2(C(F)(F)F)N=C(c3ccccc3)N(C3CCCCC3)C2=O)cc1 (stereo unspecified)	99.8	88.7	-12.4	109.2
Cc1nc(SCC(=O)N2CCCC2)c2c(C)c(C)sc2n1	88.5	90.5	-14.9	·
COc1cc(C2C(C(=O)N3CCCCC3)=C(C)NC3=C2C(=O)CC(C)(C)C3)cc(OC)c1O (stereo unspecified)	98.9	95.4	6.8	·
CCOC(=O)c1ccccc1NC(=O)c1sc2nc(C)nc(N3CCN(c4ccccn4)CC3)c2c1C	·	·	-2.9	102.4

(continued)
SMILES	Sa growth 42C	Sa growth 42C second temp	HCMV UL50-53 inh	GIV-Gai inh
O=C(COc1cccc(NC(=O)C(F)(F)C(F)F)c1)N1CCOCC1	92.7	97.1	-26.4	105.3
COc1cccc(-c2nc(SCC(=O)NCC3CCCO3)c(-c3ccc(C)cc3)[nH]2)c1 (stereo unspecified)	102.0	84.7	-19.6	106.2
Cc1ccc2oc(C(=O)NCC(c3ccc(Cl)cc3)N3CCOCC3)c(C)c2c1 (stereo unspecified)	113.7	91.4	-15.8	107.4
Cn1cccc1C(C#N)c1ncc(C(F)(F)F)cc1Cl (stereo unspecified)	·	·	-9.8	102.3
CCN(c1ccccc1)S(=O)(=O)c1nnc(NC(=O)COc2ccc(OC)cc2)s1	68.7	75.2	-6.8	100.2
COC(=O)C(CC(C)C)NC(=O)c1ccc2c(c1)OCO2 (stereo unspecified)	102.8	90.8	-8.4	100.3
CC1=CC(=C(C#N)C#N)C=C(c2ccccc2)O1	106.0	105.0	-28.4	99.5
O=C(O)c1cc2cc(Cc3cccnc3)ccc2o1	·	·	2.2&2.2&-26.3	102.4
Cc1cc2ccccc2n1-c1ccc(C(=O)N2CCC(C(=O)N(C)Cc3ccccc3)CC2)s1	103.8	62.2	16.7	104.7
O=C(CN(Cc1ccccc1)S(=O)(=O)c1ccc(Br)cc1)N1CCOCC1	90.2	82.9	-38.6	99.2
COc1cc2c(cc1NC(=O)c1ccccc1C)n(C)c(=O)n2C	118.0	88.1	-13.5	106.6
O=C1CCC(Cc2ccccc2)C(C(=O)O)C1 (stereo unspecified)	103.6	88.2	-2.5	·
Cc1cc(C(=O)CSc2nnc(N)s2)c(C)n1Cc1cccs1	93.3	89.4	-23.8	·
Cc1sc(-c2ccno2)cc1S(=O)(=O)N1CCN(C)CC1	·	·	-29.4	117.7
Cc1cc(C)cc(NC(=O)Cn2nnc(-c3ccccc3F)n2)c1	145.9	84.6	·	102.8
O=S(=O)(Nc1ccccc1)c1ccc2oc3ccc(S(=O)(=O)Nc4ccccc4)cc3c2c1	97.4	82.8	·	97.5
CN(C(=O)NCc1noc2ccccc12)c1ccccc1	101.7	82.5	·	106.8
O=C(CN1C(=O)COc2ccc(C(=O)N3CCCC3)cc21)NCc1ccccc1Cl	·	·	8.2	105.4
O=C(CSc1nc2c(c(=O)[nH]1)CCC2)Nc1nc(-c2ccccc2)cs1	·	·	-2.4	101.1
Cc1ccc(-c2nc(N)sc2CC(=O)OCC(=O)NCc2cccs2)cc1	118.2	102.8	1.7	·
